# Screens deposited in PubChem BioAssay by National Center for Advancing Translational Sciences (NCATS).
# NS1 inh – influenza NS1 inhibition; S. cerevisiae slowed by influenza A NS1, growth recovery by OD600; Potency, µM (series often up to 46.1 µM), inactives show top-dose activity, positive = more growth; 0.4% of 270,000 active; AID 2326; further: actives are rising curves; nearly all actives have a fitted effect of over 50% in size
#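 A cell-based growth assay was used: compounds that relieve NS1-induced slow growth of budding yeast raise OD600. Assay medium was yeast nitrogen base with ammonium sulphate and -URA supplement, pH 6.0, with 2% galactose.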
# RE007 growth inh – less growth of the S. pombe RE007 Vpr strain | S. pombe RE007 Vpr strain, BacTiter-Glo ATP luminescence, 24 h; control for the full effect not named in the record | Potency, µM (top dose mostly 92.2 µM), for inactives: at the highest dose activity change, negative = less growth | 0.21% of 360,000 active | AID 651644; active = well fitted falling curve with a large enough effect; inconclusive = small, poorly fitted or top-dose-only effect; inactive = no such curve, though single readings can be large or run the other way;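 further: on the % scale 0 is the no-effect control and ±100 the full control effect; nearly all actives have a fitted effect of over 50% in size; the assay follows cell death caused by Vpr and the record does not say whether a fall means rescue or toxicity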
#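 Fission yeast strain RE007, carrying one chromosomally integrated HIV-1 vpr copy, was seeded at OD 0.01 in PMG+AL medium with 23 nL pinned compound. After 24 h at 30 °C and 99% humidity, viability was read by BacTiter-Glo luminescence.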
# StopGo reporter – FMDV 2A StopGo reporter, luciferase signal | human cells with a luciferase reporter of 2A StopGo recoding; control for the full effect not named in the record | Potency, µM (highest dose often 57.9 µM), for inactives: at the top dose signal change, negative = less light | 1.2% of 410,000 active; active = well fitted falling curve with a large enough effect; inconclusive = small, poorly fitted or top-dose-only effect; inactive = no such curve, though single readings can be large or run the other way; tested in HEK293T cells; further: on the % scale 0 is the no-effect control and ±100 the full control effect; nearly all actives have a fitted effect of over 45% in size; luciferase light after 4 h
# SARS PLpro yeast – blocks SARS-CoV papain-like protease in a yeast assay. S. cerevisiae expressing SARS-CoV PLpro, growth rescue; control for the full effect not named in the record. 0.19% of 330,000 active. AID 485353. Potency, µM (doses to about 32.9 µM), for the others: at the highest dose activity, positive = growth rescue; further: 0% is about no effect; nearly all actives have a fitted effect of over 55% in size; growth read by luminescence after 48 h
# Cruzain inh Det – cruzain (T. cruzi) inhibition with detergent; Potency, µM, for the others: max response, negative = inhibition, most hits filed as inhibitors; P25779; AID 1478; 0.43% of 200,000 active; purified cruzain, Z-FR-AMC fluorescence, 0.01% Triton; active means well fitted curve in the direction sought with a large enough effect; inconclusive means small, poorly fitted or top-dose-only effect, or another doubt; inactive means no such curve, though single readings can be large; an effect the other way counts as inactive or inconclusive;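 further: plate controls were neutral wells for no effect and buffer without enzyme for full effect; nearly all actives have a fitted effect of over 40% in size; top concentration of the series not given in the record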
# Target sequence (P25779 123-467 limits assumed): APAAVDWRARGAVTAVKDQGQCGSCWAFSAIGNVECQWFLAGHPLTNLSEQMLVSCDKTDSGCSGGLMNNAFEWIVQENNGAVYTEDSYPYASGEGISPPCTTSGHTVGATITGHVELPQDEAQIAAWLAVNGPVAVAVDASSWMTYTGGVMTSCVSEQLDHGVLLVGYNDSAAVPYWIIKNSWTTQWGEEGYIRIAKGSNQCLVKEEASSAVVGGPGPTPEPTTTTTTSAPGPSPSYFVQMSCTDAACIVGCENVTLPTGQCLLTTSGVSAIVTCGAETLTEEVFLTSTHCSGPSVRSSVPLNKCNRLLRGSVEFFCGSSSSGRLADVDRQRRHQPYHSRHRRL
#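 Cruzain (1.5 nM) preincubated 15 min at RT with compound in 100 mM sodium acetate pH 5.5, 5 mM DTT, 0.01% Triton X-100. Reaction started with 2 uM Z-FR-AMC; AMC fluorescence (ex 360/em 450 nm) change over 60 s gave rate.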
# Cruzain noTriton – inhibitors of Trypanosoma cruzi cruzain without detergent. AID 1476. Potency, µM, inactives show max response, negative = inhibition, hits mostly inhibitors. purified cruzain, Z-FR-AMC fluorescence, no detergent. 2.3% of 200,000 active; active means well fitted curve in the direction sought with a large enough effect; inconclusive means small, poorly fitted or top-dose-only effect, or another doubt; inactive means no such curve, though single readings can be large; an effect the other way counts as inactive or inconclusive;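 further: plate controls were enzyme without inhibitor for no effect and buffer without enzyme for full effect; nearly all actives have a fitted effect of over 40% in size; top concentration of the series not given in the record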
#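 Detergent-free condition (0.00005% Triton X-100) in acetate buffer pH 5.5 with DTT. 1.5 nM enzyme and compound were pre-mixed 15 min, then 2 uM Z-FR-AMC substrate added; reaction progress from fluorescence change between first and third reads (60 s).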
# Marburg entry inh – inhibitors of Marburg virus binding or cell entry | Marburg virus pseudotyped entry inhibition, cell reporter; control for the full effect not named in the record; about a third of the inactives were read at about 46 µM | Potency, µM (doses to about 37.8 µM), without a hit: at the highest dose activity change, negative = inhibition, most hits filed as inhibitors | 1.8% of 300,000 active | AID 540276; active = well fitted inhibition curve with a large enough effect; inconclusive = small, poorly fitted or top-dose-only effect, or effect the other way; inactive = flat fitted curve, though single readings scatter; tested in HEK293 cells; about a fifth of its hits are not listed in these tables; further: on the % scale 0 is the no-effect control and ±100 the full control effect; luciferase read-out
# LASV entry inh – inhibitors of Lassa virus binding or cell entry. Lassa virus pseudotype entry inhibition, cell reporter; control for the full effect not named in the record. Potency, µM (series often up to 37.9 µM), for the others: at the highest dose activity change, negative = inhibition, usual class: inhibitors. AID 540256. 1.2% of 300,000 active; active means well fitted inhibition curve with a large enough effect; inconclusive means small, poorly fitted or top-dose-only effect, or effect the other way; inactive means flat fitted curve, though single readings scatter; tested in HEK293 cells; further: on the % scale 0 is the no-effect control and ±100 the full control effect; nearly all actives have a fitted effect of over 50% in size; luciferase read-out
# * hit, by the source's call; ? = inconclusive; . = no result given; & = joins results of further samples; [ ] = dose if it differs, or a comment. Unless noted, the call rests on the fitted dose curve; in most records, active means well fitted rising curve with a large enough effect; inconclusive means small, poorly fitted or top-dose-only effect; inactive means no such curve, though single readings can be large or run the other way. Potency means the concentration at half of the fitted maximal effect.
SMILES,NS1 inh,RE007 growth inh,StopGo reporter,SARS PLpro yeast,Cruzain inh Det,Cruzain noTriton,Marburg entry inh,LASV entry inh
COc1cccc2c1Oc1ncccc1N(C(=O)CCC(=O)NCc1ccccc1)C2,2.6%,-2.5%,-2.4%,0.5%,.,.,.,.
COc1ccc(NC(=O)c2c(NC(=O)COc3ccccc3)sc3c2CCC(C(C)(C)C)C3)cc1 (stereo not drawn),.,.,-5.8%,.,-1.7%,-16.4%,-5.7%[46.1 µM],28.5%[46.1 µM]
CCOc1ccc(NC(=O)N2CCC(n3nnc4ccccc43)CC2)cc1,-6.7%,12.3%,1.6%,-0.7%,.,.,-2.4%[46.1 µM],-4.6%[46.1 µM]
Cc1nc2ccccc2c2oc(C(=O)N3CC(C)CC(C)C3)cc12 (stereo not drawn),6.8%,7.7%,?,-12.1%,.,.,.,.
CCNC(=O)C1OC(n2cnc3c(N)ncnc32)C(O)C1O (stereo not drawn),.,6.5%,-7.8%,.,.,.,7.4%&7.4%,-7.3%
CCOC(=O)c1sc(NC(=O)Cc2c(F)cccc2Cl)nc1C,.,5.0%,11.4%,0.5%,.,.,?,?
CC(C)[C@H]1CN=C2N(C[C@H](C)NC(=O)CCC3CCCCC3)[C@H](Cc3ccc(O)cc3)CN21,-31.3%,?,-18.9%,0.0%,.,.,.,.
COc1cc(CC(NC(C)=O)C(=O)NC2CCN(C(=O)C3CC3)CC2)cc(OC)c1 (stereo not drawn),2.1%,8.3%,-5.9%,-0.2%,.,.,13.4%[46.1 µM],10.6%[46.1 µM]
Cc1cc(S(=O)(=O)N2CCc3ccccc3C2)ccc1F,8.8%,2.7%,-6.4%,2.1%,.,.,8.3%,1.1%
CC1CC1C(=O)OCC(=O)NNC(=O)c1ccc([N+](=O)[O-])cc1 (stereo not drawn),.,?,-19.4%,0.7%,.,.,20.6%,-0.1%
CCOC(=O)C(O)(c1ccc(N(CC)C(=O)COc2ccccc2)cc1)C(F)(F)F (stereo not drawn),2.4%,6.6%,-7.9%,-5.9%,-1.6%,15.0%,?,?
CC(=O)NCCCc1nc2ccccc2n1Cc1ccc(C)cc1,3.3%,3.5%,-22.0%,1.4%,3.2%,2.1%,-5.8%,-2.5%
COc1cc(C(=O)NC2CCCc3c2cnn3-c2ccccc2F)cc(OC)c1OC (stereo not drawn),1.2%,1.1%,?,22.8%,.,.,?,-12.0%[46.1 µM]
COc1ccccc1OCC(=O)N(Cc1ccc(N(C)C)cc1)CC1CCCO1 (stereo not drawn),.,.,-6.5%,.,-1.2%,-12.2%,13.0%[46.1 µM],?
NC(=O)c1ccsc1NC(=O)C1CCCN1S(=O)(=O)c1ccc(Cl)cc1 (stereo not drawn),8.91µM*,10.1%,38.2%[activator],0.0%,-2.8%,-0.8%,3.8%,1.1%
COc1cccc(NC(=O)Cn2c(=O)n(-c3cccc(OC)c3)c(=O)c3sc4ccccc4c32)c1,.,.,4.4%,.,-3.5%,-7.3%,3.9%[46.1 µM],-24.6%[46.1 µM]
CCOC(=O)c1c(N)nn(C(=O)c2ccccc2)c1-c1ccccc1,-4.8%,12.7%,13.5%,-1.6%,.,.,-0.2%,-21.0%
Cc1cc(C)cc(NC(=O)CC2NCCNC2=O)c1 (stereo not drawn),-0.3%,-10.9%,21.9%,-1.5%,8.2%,-4.5%,6.8%,-12.3%
Cc1nn(Cc2ccc([N+](=O)[O-])cc2)c(=O)n1-c1ccc(Cl)cc1,-2.2%,-23.7%,-18.0%,0.3%,.,.,-15.0%[46.1 µM],7.3%
Cc1c(-c2ccccn2)c(=O)[nH]n1-c1ccc(F)cc1,-4.1%,-5.8%,-33.6%,0.3%,.,.,8.91µM*,-27.0%[46.1 µM]
O=c1c(Cc2c(F)cccc2Cl)c(O)ccn1CCCn1ccnc1,4.6%,-2.3%,-8.7%,-1.1%,.,.,11.5%,1.6%
CCOC(=O)N1CCN(C(=O)CCN2C(=O)COc3ccc(C)cc32)CC1,2.8%,-8.5%,15.7%,1.5%,1.8%,2.2%,7.6%,12.4%
Cn1c(CN2CCCCC2)c(C#N)c2ccccc21,-5.1%,6.5%,-12.7%,-4.6%,-2.8%,0.3%,14.1%,-2.1%
Cc1ccccc1OCC(=O)NCCS(=O)(=O)N1CCN(c2ccc(F)cc2)CC1,.,-5.2%,-23.6%,-5.9%,.,.,-1.3%,-26.4%
CS(=O)(=O)n1nc(C(=O)N2CCOCC2)nc1N,-13.4%,10.6%,-2.4%,-52.1%,0.1%,-2.2%,3.2%&11.8%,-10.9%&-1.8%
C/C(=N\NC(=O)c1ccc(NS(=O)(=O)c2cccs2)cc1)c1ccncc1,.,11.8%,5.2%,-0.7%,.,.,4.2%[46.1 µM],.
COCCn1c(=S)[nH]c2cc(C(=O)N3CCc4ccccc4C3)ccc2c1=O,.,-3.3%,-27.1%,6.3%,.,.,16.4%[46.1 µM],-4.3%
COc1ccc(S(=O)(=O)N(CCc2ccccc2)CC(=O)NCc2ccc(C)cc2)cc1,.,.,31.2%[activator],.,-6.4%,6.4%,.,-14.7%[46.1 µM]
O=C(CCS(=O)(=O)c1cc(Br)cc2c1N(C(=O)C1CC1)CC2)N1CCN(c2ccc(F)cc2)CC1,.,.,-4.4%,.,0.1%,9.5%,-1.4%[46.1 µM],5.0%[46.1 µM]
Cc1cc(C)n(CC(=O)N/N=C/c2c[nH]c3ccccc23)n1,-0.7%,10.4%,41.7%[activator],0.5%,.,.,9.4%,-6.8%
CCCOc1cccc(C(=O)N(Cc2ccco2)C2CCS(=O)(=O)C2)c1 (stereo not drawn),-0.6%,7.7%,-5.9%,17.2%,-2.5%,8.0%,-8.7%,-8.6%
COc1ccc(NC(=O)CCCNC(=O)c2ccc(Cl)cc2)cc1OC,0.0%,8.5%,-16.0%,16.0%,.,.,.,.
C=COCCNC(=O)Nc1ccc(Cl)c(Cl)c1,-41.4%,3.9%,.,-29.2%,-18.1%,?,8.4%,13.4%
CCOC(=O)C1CCCN(C(=O)CNC(=O)c2nn(-c3ccc(OC)c(Cl)c3)c(=O)c3ccccc23)C1 (stereo not drawn),14.6%,-13.1%,-9.3%,-1.0%,.,.,-21.6%[46.1 µM],?
COc1ccc(NC(=O)NCc2ccccn2)c(OC)c1,6.0%,5.7%,-9.0%,1.8%,.,.,.,.
CC12CCC(=O)N1C(C(=O)Nc1ccc(SC(F)F)cc1)CS2 (stereo not drawn),.,-2.6%,10.3%,.,.,.,22.3%[46.1 µM],-0.7%
O=C(c1ccc(N2CCCCC2)c([N+](=O)[O-])c1)N1CCOCC1,2.1%,-2.5%,0.0%,2.6%,9.8%,-1.6%,18.8%,-4.4%
Cc1cc(Cl)c(S(=O)(=O)N2CCCC2)cc1OCC(=O)NC1CCCCC1,-3.9%,0.6%,?,-4.1%,0.1%,8.6%,?,?
Cc1cc(=O)[nH]c(N/N=C/c2ccc(O)c(O)c2)n1,5.3%,5.6%,-17.4%,2.1%,.,.,2.4%[46.1 µM],-4.7%
Cc1ccc(NC(=O)CSc2nnc(C)c(=O)n2N)cc1,.,12.2%,-2.0%,9.3%,.,.,6.1%[46.1 µM],-4.5%
COC(=O)c1cn[nH]c1NC(=S)Nc1ccc(Cl)c(Cl)c1,-5.6%,-1.4%,-47.3%,3.0%,-1.8%,?,?,?
COc1cccc(CC(=O)Nc2ccc(-c3nc4ccccc4s3)cc2Cl)c1,.,.,28.6%,.,-1.1%,-1.7%,.,9.9%[46.1 µM]
COC(=O)c1cc(C(=O)Nc2nnc(CC(C)(C)C)s2)cc([N+](=O)[O-])c1,2.8%,-4.1%,?,-22.6%,-3.8%,-15.0%,?,-0.8%
Cc1ccccc1-c1nc(CS(=O)(=O)CC(=O)NC2CCCC2)c(C)o1,-11.2%,5.7%,-14.6%,4.1%,.,.,.,.
CCC1(c2ccc(F)cc2)NC(=O)N(CC(=O)N2CC(=O)Nc3ccccc32)C1=O (stereo not drawn),.,2.3%,-15.0%,1.7%,.,.,?,3.3%
CCOC(=O)C1=C(C(C)=O)C(c2cccnc2)C(C#N)=C(N)O1 (stereo not drawn),-0.7%,11.1%,-9.1%,2.4%,1.8%,-3.3%,-4.4%,4.6%
CCOC(=O)c1[nH]c2ccccc2c1NC(=S)Nc1cc(C)ccc1C,?,1.6%,23.7%,-0.4%,-6.5%,19.9%,?,19.1%
O=c1c2[nH]cnc2n(-c2ccc(F)cc2)c(=O)n1Cc1ccccc1,-2.7%,16.0%,-25.4%,0.4%,.,.,-0.3%,.
COc1ccc(-c2noc(CN(C(=O)c3cc(OC)c(OC)cc3OC)C(C)C)n2)cc1,.,.,-10.1%,.,0.1%,?,?,-27.9%[46.1 µM]
Cn1c(=O)c2[nH]c(CNCc3ccccc3Cl)nc2n(C)c1=O,17.9%,-13.3%,-12.3%,1.0%,7.1%,15.9%,15.6%,9.5%
Cc1cc(Cl)ccc1OCC(=O)N1CCN(c2ncccn2)CC1,.,-6.5%,-21.7%,-0.8%,.,.,?,?
COc1cc(-c2noc(-c3ccc(NC4CCCC4)c([N+](=O)[O-])c3)n2)cc(OC)c1OC,.,.,-29.6%,.,-4.9%,?,-1.9%[46.1 µM],25.3%[46.1 µM]
CCOC(=O)c1c(C)[nH]c(C)c1C(=O)COC(=O)c1ccc(S(=O)(=O)N(CC)CC)cc1,0.3%,-6.0%,?,1.2%,-1.2%,?,-26.0%,?
Cc1c(C(C)C)c(=O)n(-c2ccc(S(=O)(=O)NC3CCCCC3)cc2)n1C,.,-11.0%,-28.9%,-4.1%,.,.,?,?
Cc1ccc(OCc2nnc(SCc3ccc(C#N)cc3)n2-c2ccc(C)cc2)cc1,5.3%,15.5%,-20.1%,-11.5%,-11.4%,15.0%,?,-25.5%
COCCCNS(=O)(=O)c1ccc(OC)c(Cl)c1Cl,2.9%,-6.2%,.,0.4%,2.4%,-4.0%,19.5%,-12.0%
